# Screening results (PubChem)
# HCMV NEC inh – cytomegalovirus nuclear egress complex inhibition. AID 1918969. inhibition, % (test concentration not listed). actives 0.15% (n = 190,000). HTRF UL50-UL53 interaction, normalized percent inhibition;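 active = both replicates at 50% or more, plus weaker picks with an unusually low signal ratio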;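 note: stock transfer was 100 nL into about 20 µL; 0% = negative control wells and 100% = wells with untagged competitor protein; inactives centre near -12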
# GIV-Gai inh – blocks GIV peptide binding to rat Galpha-i3; Galpha-i3/FITC-GIV peptide fluorescence polarization, 90 min; hits give low values; scaled: aluminum fluoride 0%, vehicle 100%; percent of control (FP), % (no concentration beside the values); actives 0.42% (n = 210,000); P08753;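 active = replicate mean at 85% of control or lower, very high polarization wells dropped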;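 note: wells of about 15 µL received 100 nL stock; the first replicate is given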
# Target sequence (P08753 whole entry, looked up): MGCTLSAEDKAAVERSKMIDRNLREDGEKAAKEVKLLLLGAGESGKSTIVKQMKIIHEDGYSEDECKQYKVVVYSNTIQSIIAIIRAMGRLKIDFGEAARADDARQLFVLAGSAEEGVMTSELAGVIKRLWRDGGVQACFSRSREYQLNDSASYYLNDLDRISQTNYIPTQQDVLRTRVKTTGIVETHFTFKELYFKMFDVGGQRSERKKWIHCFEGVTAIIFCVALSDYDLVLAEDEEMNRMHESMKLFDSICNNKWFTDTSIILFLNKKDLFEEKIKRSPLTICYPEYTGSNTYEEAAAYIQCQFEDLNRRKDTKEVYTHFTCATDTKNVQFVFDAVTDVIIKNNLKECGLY
# Sa growth 42C – blocks Staphylococcus aureus growth; S. aureus RN4220 growth, OD600, 20 h, 42 °C; hits give low values; relative growth, % (concentration not given with the values); actives 0.53% (n = 170,000);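 active = growth at 42 °C up to 50% and 20 or more points under that at 30 °C, or under 10% at both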;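 note: 300 nL library stock went into each well; scaled to the means of positive and negative controls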
# Sa growth 42C second temp – recorded beside Sa growth 42C, whose call it bears; relative growth, %; measured here: growth at 30 °C;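 optical density after 20 h as mean of two plates; 100% = untreated growth and lower means inhibition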
# Active calls of the source: *; . = not tested or not shown; & = joins results of further samples.
# The first six compounds, ahead of the listing:
SMILES | Sa growth 42C | HCMV NEC inh | Sa growth 42C second temp | GIV-Gai inh
CCCn1c(=N)n(CC(O)COc2ccccc2OC)c2ccccc21 (centres undefined) | 96 | -40 | 84 | 106
CC(=O)N1CCC2(CC1)C1CN(C(C)=O)CC=C1C(C#N)=C(N)C2(C#N)C#N (centres undefined) | 81 | -6 | 89 | 101
C=CCN(Cc1nc(-c2ccc(Cl)cc2)no1)C(C)=O | 122 | 7 | 94 | 100
COc1ccc(N=Cc2ccncc2)cc1 | 113 | -6 | 55 | 101
CNN1C(=O)c2cccc3cccc(c23)C1=O | 99 | -112 | 85 | 103
CC(C)(C)c1ccc(S(=O)(=O)N(CCCN2CCOCC2)Cc2cccs2)cc1 | 91 | -12 | 77 | 102

# The listing, from the first entry:
SMILES | Sa growth 42C | HCMV NEC inh | Sa growth 42C second temp | GIV-Gai inh
CCCn1c(=N)n(CC(O)COc2ccccc2OC)c2ccccc21 (centres undefined) | 96 | -40 | 84 | 106
CC(=O)N1CCC2(CC1)C1CN(C(C)=O)CC=C1C(C#N)=C(N)C2(C#N)C#N (centres undefined) | 81 | -6 | 89 | 101
C=CCN(Cc1nc(-c2ccc(Cl)cc2)no1)C(C)=O | 122 | 7 | 94 | 100
COc1ccc(N=Cc2ccncc2)cc1 | 113 | -6 | 55 | 101
CNN1C(=O)c2cccc3cccc(c23)C1=O | 99 | -112 | 85 | 103
CC(C)(C)c1ccc(S(=O)(=O)N(CCCN2CCOCC2)Cc2cccs2)cc1 | 91 | -12 | 77 | 102
Cc1cccc(CCNS(=O)(=O)c2cnc[nH]2)c1 | 113 | . | 88 | 101
Cc1ccccc1NC(=O)C(C)Sc1nnc2ccc3ccccc3n12 (centres undefined) | . | -2 | . | 99
COc1ccc(CN(C)C(=O)CN(c2ccc3c(c2)OCO3)S(C)(=O)=O)cc1 | 60 | 15 | 87 | 98
COc1ccccc1-c1cc(C(=O)NCc2ccc(F)cc2)no1 | 98 | . | 90 | 108
CNC(=S)N/N=C/c1ccc(N(C)C)cc1 | 102 | -29 | 90 | 103
CCN(CCCNC(=O)c1ccc(Sc2ccc(Cl)cc2)c(NC(C)=O)c1)c1cccc(C)c1 | 109 | . | 87 | 105
O=C(c1ccc2c(c1)C(=O)N(Cc1ccco1)C2O)N1CCOCC1 (centres undefined) | 84 | 0 | 85 | 101
O=C(CN1CCN(Cc2ccccc2)C(=O)C1=O)NCc1ccccc1Cl | . | -2 | . | 102
CC(=O)Nc1cc2nc3[nH]c(=S)[nH]c(=O)c3nc2cc1C | 78 | -132 | 68 | 109
COc1ccc(-c2nnc(Nc3nc4c(F)cccc4s3)o2)c(OC)c1 | 100 | -15 | 78 | 103
COc1ccc(Cl)cc1NC(=O)CSc1nc(-c2cccs2)cc(C(F)(F)F)n1 | 88 | -10 | 82 | 95
COc1cccc2c1cc1c(=O)n(CC(=O)N3CCN(c4cccc(C(F)(F)F)c4)CC3)nc(C)n12 | 100 | -2 | 89 | 95
CCc1ccc(CNC(=O)CN2CCSc3ccccc32)cc1 | 101 | . | 92 | 102
COc1ccccc1CNC(=O)c1ccc2c(=O)nc3c(-c4ccccc4)n[nH]n3c2c1 | 89 | -5 | 89 | 116&113
CCC1=NN(C(=O)c2ccc(Br)cc2)C(O)(c2ccccc2)C1 (centres undefined) | . | -4 | . | 108
CCc1ccc(-c2nc(SCC(N)=O)n[nH]2)cc1 | 102 | 6 | 96 | .
CC(C)(O)C(/C=C/c1ccccc1)=N/NC(N)=O | 101 | -19 | 107 | 108
Cc1cccc(C(=O)Nc2nnc(S(=O)(=O)N3c4ccccc4CC3C)s2)c1 (centres undefined) | 94 | -20 | 61 | 99
CC(C)N(C(=O)Cn1cc(S(=O)(=O)CC(=O)N(C)c2ccccc2)c2ccccc21)C(C)C | 94 | -26 | 81 | 102
COc1ccc(N2Cc3cccc(C(=O)Nc4ccccc4)c3C2=O)cc1 | 96 | -6 | 83 | 100
O=C(c1ccc2c(Cl)c3c(nc2c1)CCCC3)N1CCN(c2ccccc2F)CC1 | 107 | -14 | 87 | 104
Clc1ccc(Cl)c(-c2nn3c(Cn4nnc5ccccc54)nnc3s2)c1 | 85 | 8 | 76 | 102
COc1ccc(C(=O)CC2=NC(C)(C)CO2)cc1 | 81 | -23 | 80 | 110
NC(=O)CSc1nnc2ccc3ccccc3n12 | 102 | -17 | 98 | 103
Cc1ccc(-c2nnc(SC(C)C)n2-c2ccccc2)cc1 | 110 | 4 | 92 | 108
CCN1C(=O)N/C(=C/c2ccc(-c3cc(C(=O)O)ccc3Cl)o2)C1=O | 70 | -41 | 50 | 146
O=C(CSc1ncn(-c2ccccc2)n1)NCCc1ccccc1 | 119 | -8 | 100 | 105
O=S(=O)(c1ccccc1)N1CCSC1c1ccccc1 (centres undefined) | 105 | -23 | 92 | .
Cc1ccc2sc(NC(=O)c3ccc4c(c3)OCCO4)nc2c1C | 86 | . | 93 | 101
O=C(CN1C=NS(=O)(=O)c2ccccc21)Nc1ccc(F)cc1 | 123 | . | 84 | 103
CS(=O)(=O)N(CC(=O)O)Cc1ccc(Cl)c(Cl)c1 | 128 | -1 | 83 | 101
Cc1ccc2c(c1)CCCN2C(=O)c1cnn(-c2ccc(F)cc2)c1C | 104 | -14 | 86 | 99
O=C(/C=C/C(=O)c1ccc2ccccc2c1)c1ccccc1 | -0.4* | 27 | -0.1* | .
COc1ccc(C2CC(=O)c3cc(-c4nc(-c5cccc([N+](=O)[O-])c5)cs4)c(=O)n(-c4ccc(OC)cc4)c3C2)cc1 (centres undefined) | 102 | 12 | 90 | 100
CC1=NN(c2ccccc2)C(=O)/C1=C\c1ccccc1CC(=O)O | 90 | -8 | 82 | .
CC(C)Cn1c(N)c(C(=S)NC(=O)c2ccco2)c(=O)n(C)c1=O | 77 | -42 | 62 | .
Cc1cc(C)cc(NC(=O)NCc2c(-n3cccc3)sc3c2CCCC3)c1 | 112 | -3 | 97 | 102
O=C(CSc1nc2ccccc2[nH]1)Nc1ccc(Br)cc1F | 81 | -16 | 94 | .
N#Cc1nc(/C=C/c2ccc(F)cc2)oc1NC1CCCCC1 | 98 | -39 | 82 | 105
O=C(ON=C1CCCC1)c1ccc(Br)cc1 | 110 | 4 | 82 | 98
COc1ccccc1-n1c(CCN2C(=O)c3ccccc3C2=O)nc2ccccc2c1=O | . | -21 | . | 97
CCOc1ccc(CNC(=O)Cc2ccc(NC(=O)N3CCCCc4ccccc43)cc2)cc1OC | 106 | . | 92 | 95
Cc1cc(C[n+]2nc(-c3ccccc3)sc2N)c2ncccc2c1 | 50 | -30 | 21 | .
CCCCn1cnc2c(-c3ccccc3)cn(CC(=O)Nc3ccc(Cl)cc3)c2c1=O | . | -29 | . | 98
CC1=NN(c2cccc(C(=O)O)c2)C(=O)/C1=C\c1ccc(-c2ccc3c(c2)C(=O)NC3=O)o1 | . | -69 | . | 114
O=C(COc1ccccc1)Nc1cccc(-c2ccc3nncn3n2)c1 | 89 | -44 | 72 | 103
COc1ccc(N2C(=O)Nc3ccccc3C2(O)C(=O)NCCN2CCN(c3ccccc3)CC2)c(OC)c1 (centres undefined) | 94 | -18 | 88 | 99
CCn1c(=O)c(C(=O)Nc2ncccn2)c(O)c2ccccc21 | . | 3 | . | 107
Cc1nc(N2c3ccccc3CC2C)nc2c1C(=O)CC(C)C2 (centres undefined) | . | 10 | . | 101
Clc1cccc(-c2noc3ncnc(NCCC4=CCCCC4)c23)c1 | 107 | -13 | 86 | 104
O=C(OCc1nnc(-c2ccccc2)o1)c1ccccc1 | 91 | -24 | 89 | .
Cc1ccccc1Cn1c(C)c(C2CCN(S(=O)(=O)c3cn(C)cn3)CC2)c2ccccc21 | . | -18 | . | 107
O=S(=O)(NCCn1c(CCc2ccccc2)nc2cccnc21)c1cccc2nsnc12 | . | -100 | . | 102
O=C(Nc1nc2ccccc2c2nc3ccccc3n12)c1ccc(S(=O)(=O)N2CCCC2)cc1 | . | -6 | . | 100

# Following part.
SMILES | Sa growth 42C | HCMV NEC inh | Sa growth 42C second temp | GIV-Gai inh
COc1cccc2c1N(C(C)=O)C1CC(C)CCC1C2(C)C (centres undefined) | 101 | -1 | 123 | .
Cc1ccc(NCc2ccc3c(c2)n(C)c(=O)n3C)cc1 | . | -18 | . | 99
Cc1nnc(NC(=O)c2ccccc2OCc2nc(-c3ccccc3)no2)s1 | . | -1 | . | 110
COC(=O)c1scc(C)c1NC(=O)c1cccc(C(F)(F)F)c1 | 92 | -11 | 90 | 95
OCc1noc(-c2ccc(Cl)c(Cl)c2)n1 | 113 | -15 | 91 | 99
c1ccc(-c2nnc3n2-c2ccccc2SC3)cc1 | 103 | 23 | 81 | 94
CCOc1ccc(-c2cc(N)c(C(=O)OC)s2)cc1 | 90 | -16 | 88 | 101
O=C(CN1C(=O)CSC1=O)N1CCCCC1 | 102 | -6 | 87 | 105
Cc1[nH]ncc1CNC(=O)c1ccc(N2CCOc3ccccc32)s1 | 111 | -43 | 81 | 107
COc1ccc(C)cc1N(CC(=O)N1CCC(C)CC1)S(=O)(=O)c1ccc(C)cc1 | 93 | -33 | 88 | 101
N#C/C(NCc1ccccc1)=C(\C#N)NCc1c(F)cccc1Cl | 84 | -7 | 87 | 102
O=C(CCN1C(=O)NC2(CCCC2)C1=O)NCc1cccs1 | 103 | -7 | 72 | .
O=C(CCCCn1c(=O)c2ccccc2n(CC(=O)N2CCN(c3ccccc3)CC2)c1=O)NCc1ccco1 | 106 | -7 | 95 | 110
O=S(=O)(c1ccccc1)n1nc(-c2cccnc2)nc1NCc1ccc(F)cc1 | . | 14 | . | 108
COc1ccc(Br)c2c1-c1nc(NC(=O)c3ccccc3F)sc1C2 | 94 | -2 | 82 | 99
FC(F)(F)c1c[nH]c(=S)c(C(F)(F)F)c1 | 7.9* | -16 | 10* | 97
CSc1ccccc1NC(=O)CN(C)C1CCN(C)CC1 | 70 | -15 | 89 | .
O=S(=O)(Nc1ccc(-c2ccno2)cc1)c1ccc(-n2cccn2)cc1 | 83 | . | 89 | 110
CSC(=NCCc1ccc(Cl)cc1)NS(=O)(=O)c1ccccc1 | 108 | -8 | 87 | 111
COCCn1c(SCC(=O)c2ccc(OC)cc2)nc2cc(C(=O)NC3CCCC3)ccc2c1=O | 89 | . | 82 | 101
CCOC(=O)N1CCCN(CC(=O)NC(C)(C)C)CC1 | 106 | 9 | 93 | .
Cc1ccccc1-c1nc2c(c(SCc3cccc(Cl)c3)n1)Cc1c(CO)cnc(C)c1O2 | 81 | . | 99 | 102
CC1=NN(c2ccc(C)c(C)c2)C(=O)/C1=C/c1ccc(N2CCOCC2)cc1 | 114 | -18 | 108 | 101
COc1ccc(S(=O)(=O)Nc2ccc(C(=O)Nc3nccs3)cc2)cc1 | 76 | -26 | 52 | 105
CC1Cc2ccccc2N1C(=O)c1nc2ccccc2s1 (centres undefined) | 87 | 0 | 76 | 102
Cc1cc(Cl)ccc1NNC(=O)c1snnc1C | 85 | -9 | 94 | 115
CCOC(=O)NN1C(=O)c2ccccc2NC12CCCCC2 | 103 | 8 | 98 | 104
Cc1ccc(OCCN2CCN(c3cc(C)c(C#N)c4nc5ccccc5n34)CC2)cc1 | 111 | . | 84 | 96
Cn1cnc(S(=O)(=O)NCc2csc3ccc(Cl)cc23)c1 | 91 | -13 | 81 | 101
CCOC(=O)c1cnc(Nc2nc3ccccc3s2)nc1C | 104 | -21 | 94 | 102
Cc1ccccc1CNC(=O)Cc1csc2ccccc12 | 106 | -6 | 96 | 108
O=C(CN1C(=O)C2C3C=CC(C3)C2C1=O)Nc1nc(-c2ccccc2)cs1 (centres undefined) | 86 | 1 | 80 | 100
CCOC(=O)N1CCN(S(=O)(=O)c2cc(Cl)c(C)cc2OCC)CC1 | 123 | -7 | 107 | 103
Cc1ccc(S(=O)(=O)c2nc(-c3ccccc3)oc2NCCN2CCOCC2)cc1 | 96 | -3 | 108 | 100
CSc1ccc(N2C(=O)[C@@H]3Cc4ccccc4CN3C2=O)cc1 | . | -3 | . | 98
O=C(NC(=S)NCc1ccco1)c1ccc(-c2ccccc2)cc1 | 97 | -7 | 92 | 104
CCc1cccc(NC(=O)C(CC(C)C)NC(=O)C2CCCCC2)c1 (centres undefined) | 106 | . | 94 | 101
Cc1noc(C)c1S(=O)(=O)Nc1ccc(N2CCN(C(=O)OC(C)(C)C)CC2)nc1 | 96 | -7 | 85 | 104
N#CC(C#N)C(C#N)(C#N)C1CCCC1=O (centres undefined) | 80 | -4 | 57 | 68*
COC(=O)Cn1c(=O)oc2cc(S(=O)(=O)N3CCOCC3)ccc21 | . | -4 | . | 99
CCc1ccc(NC(=O)C(CC)n2nc(-c3ccc(C)cc3)ccc2=O)cc1 (centres undefined) | . | -16 | . | 98
COc1ccc(-c2nnc(SCC(=O)Nc3c(C)cccc3C)nc2-c2ccc(OC)cc2)cc1 | 104 | -33 | 87 | 108
NC(=O)CNC(=O)c1ccccc1 | 120 | -7 | 100 | 101
CCO/C(C)=C(\C#N)C(N)=O | 100 | -18 | 87 | .
Cc1nc(C(F)(F)F)ccc1C(=O)NCCNc1ncccc1C(F)(F)F | 99 | . | 89 | 105
CCCCOc1ccc(OCCSc2nc3ccccc3n2CC(=O)O)cc1 | . | 1 | . | 106
Cc1ccc(C)c(-n2ccn(CC#N)c(=O)c2=O)c1 | 97 | -16 | 95 | 104
COc1ccc(NC(=O)c2ccc3c(c2)CCN3S(=O)(=O)c2ccccc2)cc1 | 80 | 1 | 94 | 107
CCc1ccccc1NC(=O)N1CC(C)Sc2ccccc21 (centres undefined) | 98 | . | 82 | 103
O=C(O)c1cc(C2CCCCC2)no1 | 98 | -4 | 82 | 99
Cc1ccc2oc(C(=O)N(Cc3ccccc3F)C3CCS(=O)(=O)C3)c(C)c2c1 (centres undefined) | 114 | 5 | 80 | 97
